VDR inh: Inhibitors of the vitamin D receptor (VDR): qHTS. Vitamin D3 receptor (Homo sapiens), P11473. 0.93% of 400,000 active. VDR-SRC2-3 peptide fluorescence polarization, 2 h. AID 504847, 2011. Potency, µM, inactives show max response, negative = inhibition, hits mostly inhibitors; active means well fitted inhibition curve with a large enough effect; inconclusive means small, poorly fitted or top-dose-only effect, or another doubt; inactive means no such curve, though single readings can be large or run the other way; further: series mostly up to about 120 µM
Target sequence (P11473 whole entry, looked up): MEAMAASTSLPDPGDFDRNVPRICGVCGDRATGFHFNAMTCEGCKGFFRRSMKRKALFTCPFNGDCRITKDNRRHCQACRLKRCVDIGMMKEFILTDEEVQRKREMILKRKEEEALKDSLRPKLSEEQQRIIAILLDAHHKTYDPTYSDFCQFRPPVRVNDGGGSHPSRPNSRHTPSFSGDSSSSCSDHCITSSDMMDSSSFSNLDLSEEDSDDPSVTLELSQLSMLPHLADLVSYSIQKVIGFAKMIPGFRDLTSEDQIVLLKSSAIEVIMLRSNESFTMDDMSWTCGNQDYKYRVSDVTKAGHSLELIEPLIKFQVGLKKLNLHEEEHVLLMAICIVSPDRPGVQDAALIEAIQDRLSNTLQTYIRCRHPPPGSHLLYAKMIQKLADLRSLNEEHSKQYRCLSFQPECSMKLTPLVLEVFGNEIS
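FP read-out; VDR + SRC2-3 coactivator peptide; 23 nl compound by pintool; 2 h RT incubation; reagents held at 4 deg C, protected from light.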
An asterisk follows results filed as active; u = inconclusive. On the % scale 0 is the no-effect control and ±100 the full control effect; potency means the concentration at half of the fitted maximal effect.

VDR inh	Structure
0.1%	O=C(Nc1ccccc1)N1CCCN(c2c(Cl)cncc2Cl)CC1
1.1%	O=C(O)COc1ccccc1/C=N/NC(=O)c1ccc(F)cc1
-17.6%	O=C(c1c(F)cccc1F)N1CCN(c2ccccc2F)CC1
8.0%	CCC(=O)N1c2ccccc2CC1C(=O)N1CCN(c2ccccc2)CC1 (stereo not drawn)
-8.7%	COc1ccccc1C(=O)Nc1ccnn1C1CCN(Cc2ccc3nonc3c2)CC1
7.3%	CC(Sc1nncs1)C(=O)Nc1ccc2c(c1)OCO2 (stereo not drawn)
-4.8%	[O-][N+]12CCN(CC1)c1ccccc12
-2.4%	OCCCNC(=S)Nc1ccc2nc(-c3ccccn3)c(-c3ccccn3)nc2c1
-14.5%	CCN(c1ccccc1)S(=O)(=O)c1ccc(OC)c(NC(=O)c2ccc(=O)[nH]c2)c1
-9.0%	Cc1ccc(C(=O)Nc2c(C(=O)Nc3ccc(C)c(C)c3)sc3nc(C)cc(C)c23)cc1
10.0%	Cn1cnc2c(cnn2C)c1=O
-0.1%	OC(COc1ccccc1)CN1CCCC1 (stereo not drawn)
18.7%	Cc1nn(CC(=O)NC2CC2)c(=O)c2cc3ccccc3n12
-4.3%	O=C(N[C@@H](Cc1ccccc1)C(=O)N1CCN(S(=O)(=O)c2ccc(F)cc2)CC1)c1ccco1
-5.9%	Cc1cc(NC(=O)CCC(=O)N(c2ccccc2)C(C(=O)NC(C)(C)C)c2ccccc2Cl)no1 (stereo not drawn)
7.0%	O=C(O)CC(Cc1ccccc1)C(=O)NCC12CC3CC(CC(C3)C1)C2 (stereo not drawn)
-7.1%	CC1CCCC(C)N1C(=O)COC(=O)CN1C(=O)c2ccccc2C1=O (stereo not drawn)
-12.2%	COc1ccc2[nH]c(=O)c(CN(C(=O)C(C)C)c3ccccc3OC)cc2c1
-1.7%	NC(=O)CSc1nnc(C2CC2)n1-c1ccccc1
-1.1%	CN(C)S(=O)(=O)N1CCN(C(=O)N2CCCCC2)CC1
-6.8%	CCOC(=O)C1Cc2c([nH]c3ccccc23)CN1 (stereo not drawn)
-1.4%	Cc1cc(C(=O)N/N=C2\CCCC(=O)C2)c2ccccc2n1
-14.1%	Cc1ccc(Nc2nc(-c3ccncc3)nc3ccccc23)cc1
2.0%	O=C(Cc1ccccc1)N[C@H](c1ccccc1)P(=O)(O)CO
1.6%	Cc1ccc(CNc2nc(N)c([N+](=O)[O-])c(NCc3ccccc3)n2)cc1
-8.9%	CC(C)(C)c1cc(C(=O)N/N=C/c2ccccn2)n[nH]1
-0.5%	O=C(/C=C/c1ccc([N+](=O)[O-])cc1)NCCOc1ccc(F)cc1
-5.2%	CCCN1C(=O)CN(C2CCCCCC2)C(=O)C1c1ccc(OCC)c(OC)c1 (stereo not drawn)
4.7%	CCCN(CCC)S(=O)(=O)c1ccc2c(c1)CCCN2C(C)=O
16.5%	O=C(NC(=S)Nc1ncc(Br)cc1Br)c1cncc(Br)c1
3.9%	CC(C)CCNC(=O)c1c(CSc2ccc(Cl)cc2)noc1C(=O)NCc1ccccc1
4.5%	COc1ccc(CNC(=O)c2ccc(CS(=O)Cc3cccc(Cl)c3)o2)cc1 (stereo not drawn)
-5.7%	CCCN(CC(=O)Nc1ccccc1C)C(=O)c1ccc(N2CCCC2=O)cc1
u	CC(=O)Nc1ccc(OCCOc2ccc(/C=C3/C(=N)N4C=CSC4=NC3=O)cc2)cc1
0.9%	O=C(NN1CCOCC1)c1ccc(Br)s1
-0.5%	O=S(=O)(c1ccc(S(=O)(=O)N(Cc2ccc(F)cc2)C2CCCC2)cc1)N1CCCC1
-15.9%	Cc1cccc(NC(=O)c2c(NC(=O)c3ccco3)sc3c2CCC(C(C)(C)C)C3)c1 (stereo not drawn)
-20.2%	CC(NC(=O)C1CCCC1)c1ccc(Br)cc1 (stereo not drawn)
6.4%	O=C(NNC(=S)Nc1ccccc1C(F)(F)F)C1CC1
6.8%	COc1cc2ccccc2cc1C(=O)Nc1ccc2oc(-c3ccccc3)nc2c1
-4.0%	Cc1nc2sc(C(c3ccc(Cl)cc3)N3CCOCC3)c(O)n2n1 (stereo not drawn)
6.5%	CCOc1ccc(C(=O)NCC(=O)NCC(c2ccccc2OC)N2CCCC2)cc1 (stereo not drawn)
13.9%	Cc1ccc(-n2cnnn2)cc1S(N)(=O)=O
-3.4%	CCCCN1C(=O)c2ccc(C(=O)N(C)CC(=O)Nc3ccc(OCC)c(OCC)c3)cc2C1=O
17.6%	O=C(c1cccnc1)N1CCN(Cc2ccc3c(c2)OCO3)CC1
6.2%	COc1ccc(N2CCN(C(=O)C(C)n3c(=O)cc(C(F)(F)F)c4c(C)nn(C)c43)CC2)cc1 (stereo not drawn)
-22.7%	CC1CCN(CC(=O)Nc2nc(-c3ccccc3)cs2)CC1
-5.3%	Cc1ccc(S(=O)(=O)N2CCN(C(C)C(=O)Nc3ccccc3-c3ccccc3)CC2)cc1 (stereo not drawn)
7.8%	COc1cccc(N2CC(NC(=O)C3CC3)CC2=O)c1 (stereo not drawn)
-10.7%	Nn1cc(-c2ccccc2)nc1SCC(=O)N1CCN(S(=O)(=O)c2ccc3ccccc3c2)CC1
-5.0%	O=c1[nH]c(N2CCOCC2)nc2c1CCCC2
-21.3%	Cc1cc(S(=O)(=O)N2CCC(N3CCCCC3)CC2)ccc1-n1cnnn1
-4.0%	CCc1nnc(NC(=O)C2CCCN2C(=O)Nc2ccccc2)s1 (stereo not drawn)
u	C=CCNC(=O)c1sc(=S)n(-c2ccc(C(=O)OCC)cc2)c1N
-6.1%	COCC(C)n1c(C)cc(C(=O)COC(=O)c2c(C)nn(-c3ccccc3)c2C)c1C (stereo not drawn)
2.0%	COc1ccc2[nH]cc(CCNC(=O)Cc3ccc(F)cc3)c2c1
-1.6%	CCCCNC(=O)Cn1cnc2c(cnn2-c2ccc(C)cc2)c1=O
-0.1%	Cn1ccc(-c2ccccc2)c(C#N)c1=O
-10.7%	Cc1ccc2nc(SCC(=O)NC3CCCc4ccccc43)[nH]c2c1 (stereo not drawn)
6.9%	COc1cccc(Nc2nc(CN3CCOCC3)nc3sc4c(c23)CCCC4)c1

Other entries follow.
VDR inh	Structure
-3.2%	CC1(C(=O)OCC(=O)c2c[nH]c3ccccc23)CC1(Cl)Cl (stereo not drawn)
2.1%	COc1ccc(N2CCN(S(=O)(=O)c3ccc(-c4cc(C(F)(F)F)on4)s3)CC2)cc1
-9.3%	CCCc1nn(C)c(C(=O)Nc2cccc(CC)c2)c1Cl
-6.4%	CCCc1cc(=O)n2[nH]cnc2n1
4.7%	CC(=O)NCCNc1ncnc2ccc(-c3ccc(C(=O)N(C)C)cc3)cc12
-3.5%	Cc1ccc(S(=O)(=O)NN2C(=O)c3ccccc3NC2c2cccc(O)c2)cc1 (stereo not drawn)
10.4%	O=C(CSc1ccccn1)c1ccc2c(c1)OCO2
2.3%	O=C(COc1ccc(Br)cc1)N(Cc1ccccc1)c1ccccn1
-15.8%	Cc1ccc(C(=O)NCC(=O)Nc2cccc(C(F)(F)F)c2)cc1
-2.2%	Cc1onc(-c2c(Cl)cccc2Cl)c1C(N)=S
-10.9%	CCOc1ccc(Oc2nc(Nc3ccc(C)cc3)nc(N(C)C)n2)nn1
4.2%	Cn1cc([N+](=O)[O-])c(C(=O)N/N=C/c2ccc3c(c2)OCO3)n1

Rewritten as comma-separated lines: two of the compounds above
SMILES,VDR inh
Cc1cc(S(=O)(=O)N2CCC(N3CCCCC3)CC2)ccc1-n1cnnn1,-21.3%
Cc1cc(C(=O)N/N=C2\CCCC(=O)C2)c2ccccc2n1,-1.4%

Continuation:
VDR inh	Structure
-10.2%	CC(C)NC(=O)N1CC[C@@]2(CCCN(S(C)(=O)=O)C2)C1
-6.5%	O=C(NCSc1ccnc(SCNC(=O)c2ccccc2)n1)c1ccccc1
13.4%	O=C(OCC(=O)N1CCOCC1)c1ccc(F)cc1Cl
1.3%	COc1ccc(N2C(=S)N=C(Nc3ccccc3)C23CCCCC3)cc1
6.9%	NNC(=O)c1c(O)c2cccc3c2n(c1=O)CCC3
5.3%	C/C(=N/Nc1ccc(C(=O)O)cc1)c1ccc(O)c(O)c1O
-5.3%	O=C(Nc1ccc(F)cc1)Oc1ccc[nH]c1=O
2.4%	OC[C@@H](O)[C@@H](O[C@H]1O[C@H](CO)[C@@H](O)[C@H](O)[C@H]1O)[C@H](O)[C@@H](O)CO
-3.5%	CCCN1CCN(CCNC(=O)Nc2ccc(OC)c(OC)c2)CC1
-10.1%	CC(=O)C(CC(=O)N1CCCC1)C(=O)Nc1ccc(Cl)cc1 (stereo not drawn)
-16.5%	Cc1sc2ncnc(Nc3ccc(N4CCOCC4)cc3)c2c1-c1ccccc1
13.9%	Cc1ccccc1C(=O)Nc1sc2c(c1C(=O)O)CCC2
-16.6%	CS/C(=N\S(=O)(=O)c1cccs1)Nc1ccc(F)c(Cl)c1
-14.7%	Cc1ccc(S(=O)(=O)Nc2ccc(C(=O)NCc3ccccn3)cc2)cc1
-13.9%	COc1ccc(OC)c(-c2nn(-c3ccccc3)cc2C(=O)NCC2CCCO2)c1 (stereo not drawn)
-15.5%	CC(=O)n1cc([C@@H]2C=C(C(=O)Nc3ccccc3)O[C@H](OCc3ccc(CO)cc3)C2)c2ccccc21
-3.1%	Cc1ccc(NC(=O)CS(=O)(=O)c2c[nH]c3ccccc23)c(C)c1
10.0%	O=C(CSc1n[nH]c(=O)[nH]c1=O)NC1CCCCC1
3.3%	Cc1ccc(NC(=O)CNC(=O)c2sc3ccccc3c2Cl)nc1
7.4%	COc1cc2c(cc1OC)C(=O)CC(C)S2 (stereo not drawn)
-13.6%	O=C(Nc1cccc(C(=O)N2CCCC2)c1)C1CC1
21.3%	CCCN(CCC)S(=O)(=O)c1cc2c(cc1Br)CCN2C(=O)CC
-1.9%	COc1ccccc1CN1CC(C(=O)NCCC2=CCCCC2)CCC1=O (stereo not drawn)
7.5%	Cc1ccc(SCc2cc(-c3ccc(Cl)cc3)on2)cc1
8.6%	C=CCOCCN(C)C1=NS(=O)(=O)c2cc([N+](=O)[O-])ccc21
-14.2%	CN(C)C(=O)c1ccc(NC(=O)c2cccc(S(=O)(=O)N3CCN(Cc4ccccc4)CC3)c2)cc1
-1.0%	COc1ccc(OC)c(NS(=O)(=O)c2ccc(Br)s2)c1
5.6%	Cc1nnc(SC(C)C(=O)Nc2ccc3ccccc3c2)[nH]c1=O (stereo not drawn)
6.3%	CC(Sc1nnc(N)s1)c1ccccc1Cl (stereo not drawn)
12.1%	O=C(NCC(=O)N1CCOCC1)c1ccc(Br)cc1
-18.3%	Cc1ccccc1NC(=O)Cc1nc(COC(=O)c2ccc(S(C)(=O)=O)c([N+](=O)[O-])c2)cs1
u	COc1ccc(CC(=O)NCC2CCCN(Cc3ccc(F)cc3F)C2)cc1 (stereo not drawn)
10.8%	Cc1ccc(Cn2c(C(=O)Nc3ccc(Cl)cc3)cc3sccc32)cc1
14.9%	CCCCN(C)CC(O)Cn1cc(/C=C/C(=O)c2ccc(OC)c(OC)c2)c2ccccc21 (stereo not drawn)
-8.6%	CC(C)CN(CC(C)C)CC(O)CN(c1ccccc1)S(=O)(=O)c1ccccc1[N+](=O)[O-] (stereo not drawn)
-3.6%	CCOC(=O)C1=C(CN2CCSCC2)NC(=O)NC1c1cc(C)ccc1C (stereo not drawn)
-1.3%	Cc1cc(-n2c(C)nc3ccccc3c2=O)ccc1NC(=O)c1ccc(C)c([N+](=O)[O-])c1
-2.1%	CN1CCC2(CC1)CCN(S(=O)(=O)c1ccccc1)CC2
-3.9%	CNC(=O)c1ccsc1NC(=O)CCS(=O)(=O)c1ccc(C)cc1
11.0%	CCNC(=O)CN(C1CCCCC1)S(=O)(=O)c1ccc(F)cc1
12.5%	CC(C)=CC(=O)Nc1nnc(-c2ccc(F)cc2)s1
-10.7%	COc1ccc(N=C(N)SCc2ccccn2)cc1
3.7%	O=C(OCC(=O)N1CCN(c2ccc(F)cc2)CC1)c1cnc2ccccc2n1
-0.1%	N#Cc1ccc(CSc2nnc(-c3c[nH]c4ccccc34)n2-c2ccccc2)cc1
-21.1%	CC(C)(C)C(=O)N1CCN(c2ccc(NC(=O)c3ccc4c(c3)OCCO4)cc2)CC1
-15.0%	O=C1CC(c2cc3c(cc2Br)OCO3)C2=C(CCCC2=O)N1 (stereo not drawn)
-2.2%	c1ccc(CNc2nc(CN3CCOCC3)nc3scc(-c4ccccc4)c23)cc1
-9.5%	COc1ccc(/C(O)=C2/C(=O)C(=O)N(CCN(C)C)C2c2ccc(F)cc2)cc1Cl (stereo not drawn)

Molecules shown so far that contain a Cl atom:
VDR inh	Structure
0.1%	O=C(Nc1ccccc1)N1CCCN(c2c(Cl)cncc2Cl)CC1
-5.9%	Cc1cc(NC(=O)CCC(=O)N(c2ccccc2)C(C(=O)NC(C)(C)C)c2ccccc2Cl)no1 (stereo not drawn)
3.9%	CC(C)CCNC(=O)c1c(CSc2ccc(Cl)cc2)noc1C(=O)NCc1ccccc1
4.5%	COc1ccc(CNC(=O)c2ccc(CS(=O)Cc3cccc(Cl)c3)o2)cc1 (stereo not drawn)
-4.0%	Cc1nc2sc(C(c3ccc(Cl)cc3)N3CCOCC3)c(O)n2n1 (stereo not drawn)
-3.2%	CC1(C(=O)OCC(=O)c2c[nH]c3ccccc23)CC1(Cl)Cl (stereo not drawn)
-9.3%	CCCc1nn(C)c(C(=O)Nc2cccc(CC)c2)c1Cl
-2.2%	Cc1onc(-c2c(Cl)cccc2Cl)c1C(N)=S
13.4%	O=C(OCC(=O)N1CCOCC1)c1ccc(F)cc1Cl
-10.1%	CC(=O)C(CC(=O)N1CCCC1)C(=O)Nc1ccc(Cl)cc1 (stereo not drawn)
-16.6%	CS/C(=N\S(=O)(=O)c1cccs1)Nc1ccc(F)c(Cl)c1
3.3%	Cc1ccc(NC(=O)CNC(=O)c2sc3ccccc3c2Cl)nc1
7.5%	Cc1ccc(SCc2cc(-c3ccc(Cl)cc3)on2)cc1
6.3%	CC(Sc1nnc(N)s1)c1ccccc1Cl (stereo not drawn)
10.8%	Cc1ccc(Cn2c(C(=O)Nc3ccc(Cl)cc3)cc3sccc32)cc1
-9.5%	COc1ccc(/C(O)=C2/C(=O)C(=O)N(CCN(C)C)C2c2ccc(F)cc2)cc1Cl (stereo not drawn)

High-throughput results from PubChem.

An excerpt. The share of hits here may be higher or lower than overall.
